Compound activity deposited in PubChem BioAssay by National Center for Advancing Translational Sciences (NCATS).
NS1 inh: blocks influenza NS1 protein function; Potency, µM (highest dose often 46.1 µM), without a hit: at the highest dose activity, positive = more growth; AID 2326; S. cerevisiae slowed by influenza A NS1, growth recovery by OD600; 270,000 tested, 0.4% active; further: actives are rising curves; nearly all actives have a fitted effect of over 50% in size
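S. cerevisiae expressing influenza A NS1, grown in glucose, washed, then diluted 1:100 into pH 6.0 -URA galactose medium with 23 nl compound. Growth recovery read as OD600; NS1-free strain serves as control.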
StopGo reporter: FMDV 2A StopGo reporter, luciferase signal; Potency, µM (titrated, usually from 57.9 µM), without a hit: top-dose signal change, negative = less light; human cells with a luciferase reporter of 2A StopGo recoding; control for the full effect not named in the record; 410,000 tested, 1.2% active; AID 1159524; active = well fitted falling curve with a large enough effect; inconclusive = small, poorly fitted or top-dose-only effect; inactive = no such curve, though single readings can be large or run the other way; tested in HEK293T cells; further: on the % scale 0 is the no-effect control and ±100 the full control effect; nearly all actives have a fitted effect of over 45% in size; luciferase light after 4 h
RE007 growth inh: less growth of the S. pombe RE007 Vpr strain; S. pombe RE007 Vpr strain, BacTiter-Glo ATP luminescence, 24 h; control for the full effect not named in the record; 360,000 tested, 0.21% active; AID 651644; Potency, µM (titrated, usually from 92.2 µM), for inactives: at the highest dose activity change, negative = less growth; active = well fitted falling curve with a large enough effect; inconclusive = small, poorly fitted or top-dose-only effect; inactive = no such curve, though single readings can be large or run the other way;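 further: on the % scale 0 is the no-effect control and ±100 the full control effect; nearly all actives have a fitted effect of over 50% in size; the assay follows cell death caused by Vpr and the record does not say whether a fall means rescue or toxicity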
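Fission yeast RE007 carrying one integrated HIV-1 vpr copy, seeded at OD 0.01 in PMG+AL medium with 23 nL pinned compound. Grown 24 h at 30 degrees; viability read by BacTiter-Glo luminescence after 5 min.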
Cruzain inh Det: inhibitors of Trypanosoma cruzi cruzain with detergent. 200,000 tested, 0.43% active. Potency, µM, without a hit: max response, negative = inhibition, hits mostly inhibitors. purified cruzain, Z-FR-AMC fluorescence, 0.01% Triton. P25779; active means well fitted curve in the direction sought with a large enough effect; inconclusive means small, poorly fitted or top-dose-only effect, or another doubt; inactive means no such curve, though single readings can be large; an effect the other way counts as inactive or inconclusive;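 further: plate controls were neutral wells for no effect and buffer without enzyme for full effect; nearly all actives have a fitted effect of over 40% in size; top concentration of the series not given in the record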
Target sequence (P25779 123-467 limits assumed): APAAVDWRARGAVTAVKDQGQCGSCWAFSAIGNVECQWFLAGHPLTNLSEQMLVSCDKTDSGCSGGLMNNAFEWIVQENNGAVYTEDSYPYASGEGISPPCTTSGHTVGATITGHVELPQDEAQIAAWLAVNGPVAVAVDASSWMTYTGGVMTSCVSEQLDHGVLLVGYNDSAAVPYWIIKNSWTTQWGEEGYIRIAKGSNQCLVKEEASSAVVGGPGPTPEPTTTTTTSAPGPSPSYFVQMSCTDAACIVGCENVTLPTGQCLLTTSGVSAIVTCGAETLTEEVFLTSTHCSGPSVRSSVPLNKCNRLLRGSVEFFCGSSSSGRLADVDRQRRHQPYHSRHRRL
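Purified cruzain (1.5 nM final) was preincubated with compounds for 15 min at room temperature in 100 mM sodium acetate pH 5.5, 5 mM DTT, 0.01% Triton X-100. Reaction started with 2 uM Z-FR-AMC; AMC fluorescence change over 60 s gave activity.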
Lassa entry inh: inhibitors of Lassa virus binding or cell entry. Lassa virus pseudotype entry inhibition, cell reporter; control for the full effect not named in the record. 300,000 tested, 1.2% active. Potency, µM (series often up to 37.9 µM), inactives show at the top dose activity change, negative = inhibition, usual class: inhibitors; active means well fitted inhibition curve with a large enough effect; inconclusive means small, poorly fitted or top-dose-only effect, or effect the other way; inactive means flat fitted curve, though single readings scatter; tested in HEK293 cells; further: on the % scale 0 is the no-effect control and ±100 the full control effect; nearly all actives have a fitted effect of over 50% in size; luciferase read-out
MARV entry inh: blocks Marburg virus binding to or entry into cells; Marburg virus pseudotyped entry inhibition, cell reporter; control for the full effect not named in the record; about a third of the inactives were read at about 46 µM; Potency, µM (titrated, usually from 37.8 µM), for the others: at the top dose activity change, negative = inhibition, hits mostly inhibitors; 300,000 tested, 1.8% active; AID 540276; active = well fitted inhibition curve with a large enough effect; inconclusive = small, poorly fitted or top-dose-only effect, or effect the other way; inactive = flat fitted curve, though single readings scatter; tested in HEK293 cells; about a fifth of its hits are not listed in these tables; further: on the % scale 0 is the no-effect control and ±100 the full control effect; luciferase read-out
SARS PLpro yeast: SARS-CoV PLP inhibition in yeast; S. cerevisiae expressing SARS-CoV PLpro, growth rescue; control for the full effect not named in the record; Potency, µM (doses to about 32.9 µM), for inactives: at the top dose activity, positive = growth rescue; 330,000 tested, 0.19% active; further: 0% is about no effect; nearly all actives have a fitted effect of over 55% in size; growth read by luminescence after 48 h
Cruzain inh noDet: cruzain (T. cruzi) inhibition without detergent | purified cruzain, Z-FR-AMC fluorescence, no detergent | Potency, µM, for inactives: max response, negative = inhibition, actives largely listed as inhibitors | 200,000 tested, 2.3% active | AID 1476; active means well fitted curve in the direction sought with a large enough effect; inconclusive means small, poorly fitted or top-dose-only effect, or another doubt; inactive means no such curve, though single readings can be large; an effect the other way counts as inactive or inconclusive;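 further: plate controls were enzyme without inhibitor for no effect and buffer without enzyme for full effect; nearly all actives have a fitted effect of over 40% in size; top concentration of the series not given in the record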
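Purified cruzain at 1.5 nM, pre-incubated 15 min with compound at room temperature in 100 mM sodium acetate pH 5.5, 5 mM DTT, 0.00005% Triton X-100. Reaction started with 2 uM Z-FR-AMC; AMC fluorescence increase over 60 s gives rate.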
* = called active by the depositor; u = inconclusive; x = not tested or not shown; & = joins results of further samples; [ ] = remark or other dose. Unless noted, the call rests on the fitted dose curve; in most records, active means well fitted rising curve with a large enough effect; inconclusive means small, poorly fitted or top-dose-only effect; inactive means no such curve, though single readings can be large or run the other way. Potency means the concentration at half of the fitted maximal effect.

SMILES	NS1 inh	StopGo reporter	RE007 growth inh	Cruzain inh Det	Lassa entry inh	MARV entry inh	SARS PLpro yeast	Cruzain inh noDet
CCOc1ccccc1Nc1ccc2nonc2c1[N+](=O)[O-]	2%	-17%	3%	x	x	x	0%	x
COc1cc([N+](=O)[O-])c2nc(C=NNC(N)=S)ccc2c1	x	-5%	-25%	x	4%	-18%	x	x
Cc1ccc2c(c1)N(CCC(=O)NCc1ccc(F)cc1)C(=O)CO2	x	-16%	x	-2.2%	-13%[46.1 µM]	27%[46.1 µM]	x	1%
Cc1ccc(NC(=O)CN(C)S(=O)(=O)c2cccc3cccnc23)cc1F	-17%	-11%&-8%	2%	-3.4%	-44%[46.1 µM]	-25%&-23%[46.1 µM]	10%	0%
Clc1cccc(Cl)c1C1=NOC(c2nnc(-c3ccccc3)o2)C1 (stereo not given)	13%	49%[activator]	-14%	x	x	x	-9%	x
c1csc(CNc2ncnc3sccc23)c1	x	u	-11%	x	u	-29%	x	x
COc1cccc(CNC(=O)CCC(=O)N2Cc3cccc(OC)c3Oc3ncccc32)c1OC	14%	-13%&-5%	0%	-0.3%	-4%[46.1 µM]	x	-1%	-5%
COCCCN=Cc1c(C)[nH]n(-c2ccc(Br)cc2Br)c1=O	x	0%	0%	x	1%[46.1 µM]	-7%[46.1 µM]	-1%	x
Cc1ccc2nc(COc3cccc(NC(=O)c4ccccc4Cl)c3)cc(=O)n2c1	x	0%	x	-2.1%	-9%[46.1 µM]	x	x	-4%
O=C(O)c1cc(N=Nc2c(O)ccc3ccccc23)cc(C(=O)O)c1	5%	-27%	-12%	x	u	-8%	0%	x
Cc1ccsc1CN1CCc2nc(Nc3ccccc3)ncc2C1	x	26%	x	-12%	18%[46.1 µM]	x	x	u
Cc1cccc(NS(=O)(=O)c2ccc(C)c(C(=O)OCC(=O)Nc3cc(C)on3)c2)c1	-35%	25%	-7%	-7.4%	4.5µM*	u	0%	-5%
COc1ccc(-c2nnc(SCC(=O)Nc3cc(C)on3)n2N)cc1OC	6%	-1%	6%	5.0%	3%	10%	-1%	-5%
CC(Oc1cc2oc(=O)c3c(c2cc1Cl)CCCC3)C(=O)NCCN1CCOCC1 (stereo not given)	7%	12%	-15%	x	-12%[46.1 µM]	23%[46.1 µM]	1%	x
Nc1nc2n(n1)C(c1ccccc1)CC(c1ccc(F)cc1)N2 (stereo not given)	9%	0%	-7%	4.8%	x	x	7%	1%
CN(C)CCN1C(=O)C(=O)/C(=C(/O)c2ccc(F)cc2)C1c1ccccc1 (stereo not given)	u	30%	-8%	-3.9%	3%	u	-2%	-5%
COc1ccc(NC(=O)NC(C)C2CC3CCC2C3)cc1 (stereo not given)	-2%	-4%	15%	x	-8%	14%[46.1 µM]	-1%	x
CC/C(Cc1ccccc1)=N\NC(=O)c1cc(C)oc1C	1%	-7%	-18%	-2.0%	22%	1%	7%	11%
COCCn1ccc2c(OCC(=O)Nc3ccccc3F)cccc2c1=O	x	12%	x	-7.6%	-3%[46.1 µM]	x	x	-7%
CCCOc1ccc(/C=C/C(=O)NCc2ccccc2)cc1	-11%	44%[activator]	41%	-4.1%	u	-16%	-14%	-2%
Cc1ccc(/C=N/NC(=O)Cn2nccc2C)o1	1%	9%	2%	-0.9%	-4%	-1%	0%	-13%
N/C(=N\OC(=O)CCCCCN1C(=O)c2ccccc2C1=O)c1ccccn1	-9%	7%	26%	x	26%	25%	-1%	x
Cc1ccc(OC(C)C(=O)Nc2ccc(C)c(S(=O)(=O)Nc3ccc(C)cc3C)c2)cc1 (stereo not given)	26%	-7%	16%	-1.4%	16µM*	u	-15%	u
O=C(COC(=O)c1cc(-c2cccs2)nn1-c1ccccc1)Nc1ccc(Cl)c([N+](=O)[O-])c1	11µM*	-8%	-6%	-2.2%	5%	-4%	-10%	u
CC(C)COP(=O)(c1ccc(N(C)C)cc1)C(O)c1ccccn1 (stereo not given)	u	8%	4%	-0.6%	2%	-3%	2%	-3%
Cc1ccc(C)c2nc(SCC(=O)Nc3ccc4c(c3)OCO4)c(C#N)cc12	-50%	-8%	-12%	x	x	x	-1%	x
O=C(O)c1cc([N+](=O)[O-])ccc1NCCCc1ccccc1	-29%	14%&-14%&9%	16%	-13%&-3.5%&-15%	6%	u	x	-11%&-7%&-1%
O=C(Nc1cccc(F)c1)N1CCC(c2ccccc2)CC1	-10%	46%[activator]	-9%	x	x	x	-4%	x
CN1c2ccccc2Sc2cc(N)ccc21	-125%	-8%	-29%	x	u	-17%[46.1 µM]	-31%	x
O=C(O)CC/C(=N/Nc1ncc(C(F)(F)F)cc1Cl)C(=O)O	0%	5%	9%	x	-9%	12%[46.1 µM]	-1%	x
Cn1c(COc2ccc([N+](=O)[O-])cc2)nnc1SCC(=O)NCC1CCCO1 (stereo not given)	17%	-12%	-5%	x	2%	5%[46.1 µM]	-1%	x
O=S(=O)(/C(=C/c1ccc(C(F)(F)F)cc1)c1nc2ccccc2[nH]1)c1ccccc1	-16%	u	-10%	-4.6%	u	11µM*	-27%	30%
Cc1ccccc1C(=O)Nc1ccnn1C1CCN(Cc2ccc(CO)o2)CC1	-8%	-5%	2%	x	x	x	3%	x
COc1ccc(-c2n[nH]c(=S)n2Cc2ccccc2)cc1	23%	-18%	-12%	x	u	6%	1%	x
COc1ccc(C(=O)NCc2ccc3c(c2)CCN3C(=O)c2ccncc2)cc1	x	-7%	x	-0.2%	-9%[46.1 µM]	x	x	14%
CCN=C1S/C(=C/c2ccc(-c3ccc(F)cc3)o2)C(=O)N1CC	-1%	-11%	-11%	x	u	-5%	1%	x
CCOC(=O)c1cnc(SCC(=O)Nc2nc(C)c(C)s2)nc1N	-30%	-6%	2%	0.7%	-2%	-5%	-7%	9%
Cc1ccccc1CN1C(=O)C(O)(CC(=O)c2cccc(Br)c2)c2ccccc21 (stereo not given)	x	-23%	x	-4.7%	-24%[46.1 µM]	x	x	-25%
O=C(NC1CCCC1)C(c1ccccn1)N(C(=O)c1csnn1)c1ccc(F)cc1 (stereo not given)	-7%	7%	-10%	x	-5%	2%[46.1 µM]	1%	x
Cc1cc2nn(-c3ccccc3)nc2cc1NC(=O)COc1ccc(Cl)cc1	x	28%	x	1.0%	0%[46.1 µM]	x	x	4%
O=C(NC(=S)N1CCCCCC1)c1ccccc1Cl	x	6%	-2%	x	x	14%[46.1 µM]	7%	x
COc1ccc(-c2csc(NC(=O)C3COc4ccccc4O3)n2)cc1OC (stereo not given)	u	u	-5%	x	x	x	-2%	x
O=C(COC(=O)c1ccccc1NCCO)Nc1cc(C(F)(F)F)ccc1N1CCOCC1	5%	-26%	13%	x	-17%[46.1 µM]	u	-4%	x
COc1ccc(S(=O)(=O)Oc2c(OC)cc(C(=S)N3CCOCC3)cc2OC)cc1	10%	28%	-4%	x	4%[46.1 µM]	-2%[46.1 µM]	2%	x
Cc1ccc(NC(=O)Cc2nnc(SCC(=O)NC3CCCC3)n2C)cc1	-2%	2%	27%	x	2%[46.1 µM]	u	0%	x
CCn1cc(C2C(C(=O)Nc3cc(C)ccn3)=C(C)NC3=C2C(=O)CC(C)(C)C3)c(C)n1 (stereo not given)	-4%	-17%	3%	-7.5%	2%	9%	-4%	-8%
O=C(CCc1ccccc1)OCCOC(=O)CCc1ccccc1	-9%	-11%	-17%	x	-18%	-3%[46.1 µM]	0%	x
Cc1c(-c2c(C#N)c(N)nc3c2CCCCCC3)cnn1C	-2%	-6%	-2%	0.9%	-15%	5%	6%	8%
N#CC1(C#N)[C@@H](C(=O)C23CC4CC(CC(C4)C2)C3)C12CCOCC2	15%	u	8%	1.1%	1%	u	25%	4%
COc1ccc(C(=O)OCC(=O)c2ccc3c(c2)NC(=O)CO3)cc1[N+](=O)[O-]	x	-10%	-7%	x	u	-27%	2%	x

Next records follow.
SMILES	NS1 inh	StopGo reporter	RE007 growth inh	Cruzain inh Det	Lassa entry inh	MARV entry inh	SARS PLpro yeast	Cruzain inh noDet
O=C(/C=C/c1ccc(F)cc1)c1ccccc1Br	-28%	22µM*	u	-6.0%	u	-28%	-94%	5%
CN=c1scc(C)n1/N=C/c1ccc(O)c(O)c1O	10%	-24%	u	-8.6%	1%	x	-11%	-16%
O=S(=O)(Nc1ccc(-c2cnco2)cc1)c1ccccc1	4%	94%[activator]	0%	x	x	x	1%	x
CCCCn1c(=O)c(C(=O)Nc2ccccc2F)c(O)c2ccccc21	4%	0%	9%	x	16%[46.1 µM]	18%[46.1 µM]	-1%	x
O=C(COc1ccccc1)Nc1ccc2c(c1)nc1n2CCOC1	-20%	45%[activator]	-12%	6.2%	2%	u	0%	-8%
CCN(CC)c1ccc(/C=N/NC(=O)c2ccc3c(c2)OCCO3)cc1	-47%	-1%	3%	x	x	x	-6%	x
COc1ccc(/C(N)=N/OC(=O)Cc2ccccc2)cc1	-18%	34%	1%	-2.6%	7%[46.1 µM]	20%[46.1 µM]	-27%	3%
CC(=O)NCC1COc2ccccc2O1 (stereo not given)	5%	-8%	5%	x	x	x	0%	x
COc1ccc(-c2cc(CC3(C(=O)O)CCN(C(=O)OC(C)(C)C)CC3)on2)c(OC)c1	1%	1%	3%	x	x	x	-1%	x
O=C(O)c1ccc(-n2ncc3c2/C(=C\c2cccc([N+](=O)[O-])c2)CC3)cc1	x	28%	3%	x	23%	u	x	x
CCC(=O)N1CCN(c2ccc(Cl)cc2NC(=O)c2ccc([N+](=O)[O-])o2)CC1	14%	u	2%	x	-23%[46.1 µM]	u	-2%	x
O=c1c2c3nc4ccccc4nc3n(-c3ccc4c(c3)OCCO4)c2ncn1CC1CCCO1 (stereo not given)	9%	x	x	1.2%	x	x	6%	-29%
CC(C)c1ccc(C2c3[nH]c4ccccc4c3C[C@H]3C(=O)N(c4ccccc4C(=O)N4CCC[C@H]4C(=O)O)C(=O)N23)cc1 (stereo not given in full)	-8%	-15%	-13%	x	x	x	-1%	x
